AmpC inh no det: Promiscuous and Specific Inhibitors of AmpC Beta-Lactamase (assay without detergent). P00811. Potency, µM (titrated, usually from 28.7 µM), inactives show at the highest dose activity change, negative = inhibition. AmpC nitrocefin hydrolysis, absorbance 480 nm, no detergent; potencies from a single point are estimates. AID 585, 2007. actives 1.8% (n = 71,000); active = falling curve, for most hits resting on a single point; inconclusive = weak or doubtful change; inactive = flat or rising curve; also: % of control where 0% means no effect; about half of the hits show no inhibition at the top dose; a quarter of the inactives give rising signals
Target sequence (P00811 whole entry, looked up): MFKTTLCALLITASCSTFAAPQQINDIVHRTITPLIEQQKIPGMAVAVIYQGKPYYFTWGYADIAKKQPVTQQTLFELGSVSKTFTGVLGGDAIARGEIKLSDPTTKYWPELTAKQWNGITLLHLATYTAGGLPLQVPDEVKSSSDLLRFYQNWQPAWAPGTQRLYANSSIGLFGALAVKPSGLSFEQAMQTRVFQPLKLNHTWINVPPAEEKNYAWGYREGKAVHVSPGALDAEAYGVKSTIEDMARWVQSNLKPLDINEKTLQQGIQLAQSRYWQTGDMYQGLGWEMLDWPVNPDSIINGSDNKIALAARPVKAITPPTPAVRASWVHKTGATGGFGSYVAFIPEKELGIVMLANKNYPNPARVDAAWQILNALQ
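AmpC, 20 mM phosphate pH 7.0; 15 min cpd preinc, RT; start with nitrocefin (800 uM stock); A480 kinetic read, 20 s intervals, 4 min. No-enzyme wells = negative control.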
An asterisk follows results filed as active; ? = inconclusive; ! = not active in a repeat; [ ] = another dose, or the depositor's remark. Potency is read from the fitted curve at half-maximal effect. Only part of the results is shown; count on the stated rates, not on these rows.

SMILES	AmpC inh no det
CCCCC(c1nnnn1Cc1ccco1)N1CCN(C(=O)c2ccco2)CC1 (centres undefined)	44%
Cc1ccnc(SCCn2c(N3CC(C)CC(C)C3)nc3c2c(=O)n(C)c(=O)n3C)n1 (centres undefined)	125%
CCC(CC)c1nc(NCCC(=O)O)c2ccccc2n1	6%
O=C(Nc1ccccc1)Nc1ccccc1	-10%
CCOc1ccc(OCC(=O)N2CCOCC2)cc1	2%
COc1ccccc1N1CCN(c2cc(=O)n(-c3ccccc3Cl)c(=O)[nH]2)CC1	38%
COc1ccc(CCN2C(=NC(=O)CCC(=O)O)SC3CS(=O)(=O)CC32)cc1OC (centres undefined)	-2%
Cc1ccc(NCc2nnc(SCC(=O)c3ccccc3)o2)c(C)c1	14%
O=C(CNCC1CCCO1)Nc1ccc(N2CCCCCC2)cc1 (centres undefined)	43%
Cc1cccc(N(C)S(=O)(=O)c2ccc3c(c2)CCC(=O)N3)c1	0%
O=C(CCS(=O)(=O)Cc1ccccc1F)NCCCN1CCCCC1	-15%
CC(=O)c1ccccc1NS(=O)(=O)c1c(C)nn(-c2ccccc2)c1C	32%
CC(C)OC(=O)CCC1(C(=O)O)CCC(=O)NC1 (centres undefined)	20%
Cc1ccc(C2CC(C(F)(F)F)n3nc(C(=O)NCc4ccco4)cc3N2)cc1 (centres undefined)	32%
Cc1c(C(=O)O)oc2c1C(O)CCC2 (centres undefined)	-9%
O=C(Nc1cccnc1)c1ccc2c(c1)C(=O)N(Cc1cccnc1)C2=O	11%
CCN(CC)C(=O)CSc1nnc([C@@H](N)Cc2ccccc2)o1	15%
Nn1c(SC/C=C/c2ccccc2)nnc1-c1ccncc1	-8%
COc1nc(Nc2ccc3c(c2)OCO3)nc(OC)n1	4µM*[single pt active]
CC(C)C(=O)Nc1ccc(-c2nc3cccnc3o2)cc1	10%
COc1cccc(Cn2c(=O)c(C)nc3cnc(Nc4ccccc4)nc32)c1	21%
c1ccc2nc(C3=NCCN3)cnc2c1	2%
Cc1ccc(SC(C)c2nc(-c3ccncc3)no2)cc1 (centres undefined)	73%
N#C/C(=C\NC(=S)c1ccncc1)c1nc2ccccc2s1	-2%[5.75 µM]
COc1ccccc1-c1cncnc1NCc1cccc(C)c1	22%
Cc1cc(NC(=O)CSc2nc3ccsc3c(=O)n2NC(=O)c2ccccc2)no1	-24%
O=c1cc(-c2ccc(O)cc2)oc2cc(O)cc(O)c12	4µM*!
CC1CCCCN1S(=O)(=O)c1ccc2c(c1)CCN2C(=O)C1CCC1 (centres undefined)	29%
COC(=O)C1C(O)=C(C=NC2CCCCC2)C(=O)CC1(C)C (centres undefined)	12%
O=C1CSC(c2ccccn2)N1Cc1cn2ccccc2n1 (centres undefined)	10%
O=C(NCCc1ccccc1)C1CCN(S(=O)(=O)N2CCC3(CC2)OCCO3)CC1	32%
CNC(=O)Oc1cccc2ccccc12	-8%
O=C(Cn1c(=O)oc2cc(S(=O)(=O)N3CCCCCC3)ccc21)NC1CCCCCCC1	4µM*[single pt active]
O=C(c1coc2ccc(O)cc12)C1CC1	-11%
O=C(CN(C1CCCCC1)S(=O)(=O)c1ccc(F)cc1)NCCCO	30%
O=C(c1cc(-c2ccc(O)cc2)on1)N1CCCc2ccccc21	-18%
O=C(NCN1CCc2ccccc2C1)c1cnccn1	-6%
Cc1cccc(N2C(=O)CC(Sc3nc(C)c4c(n3)CCCC4)C2=O)c1 (centres undefined)	42%
CCCc1nc(-c2cc3ccc(C)cc3[nH]c2=O)no1	6%
CC(C)C#N	2%
CCC(C)(C)NC(=O)C(c1cccn1C)N(Cc1ccccc1)C(=O)Cn1nnc2ccccc21 (centres undefined)	14%
O=S1(=O)N=C(SCCO)c2ccccc21	2%
CCC(=O)N1CCCc2cc(S(=O)(=O)N3CCC(N4CCCCC4)CC3)ccc21	-2%
Cn1c(SCC(=O)NC(C)(C)C)nnc1-c1ccc(C(C)(C)C)cc1	65%
CCN1CCN(c2nc(-c3cccnc3)nc3ccccc23)CC1	10%
Cc1ccc(-n2nnc3c(=O)n(Cc4cccc(C)c4)cnc32)cc1	7%
O=C(CCC(=O)N1CCc2ccccc21)N1CCc2ccccc21	-4%
COc1ccccc1CN1CCCC2(CCN(S(C)(=O)=O)CC2)C1	-2%
OCCNc1ccc(Cl)cc1	4%
COc1ccccc1C1C(C(C)=O)=C(O)C(=O)N1CCc1ccccc1 (centres undefined)	-18%
COC(=O)c1oc2ccc(Br)cc2c1NC(=O)CCN1CCOCC1	61%
CC(=O)Nc1sc(C)c(C)c1CN1CCN(S(=O)(=O)c2ccccc2)CC1	94%
Cc1csc(NC(=O)CCN2C(=O)c3ccccc3S2(=O)=O)n1	-5%
CN(Cc1ccccc1)c1nnc(N)s1	29%
CCC1CCCCN1P(=O)(c1ccc(C)o1)C(C)(C)C (centres undefined)	67%
Fc1ccc2[nH]c3c(N4CCN(C5CCCCC5)CC4)ncnc3c2c1	-3%
COc1ccc(-c2nnc(-c3cccnc3)o2)cc1OC	21%
Cc1ccccc1-c1nc(CN2CCC(C(=O)NCC3CCCO3)CC2)c(C)o1 (centres undefined)	29%
CCOc1ccc(CCNC(=O)C2CCCN(c3nnc(-n4cccc4)s3)C2)cc1OCC (centres undefined)	111%
Cn1c(=O)oc2cc(S(=O)(=O)NC3CCCc4ccccc43)ccc21 (centres undefined)	15%

Next section
SMILES	AmpC inh no det
Cc1cc(C)nc(SCc2nnc(SCC(=O)N3CCCc4ccccc43)o2)n1	78%
CCC(=O)N(Cc1cc2c(C)ccc(C)c2[nH]c1=O)C1CCCCC1	63%
C/C(=N\O)C(C)/[N+]([O-])=C/c1nc(C)c(C)n1O (centres undefined)	-9%
Cc1ccc(C)c(-n2c(Cc3cc(=O)[nH]c(=O)[nH]3)nnc2SC(C)C)c1	4µM*[single pt active]
CCNc1ncc2nc(-c3cn(C)c4ccccc34)c(=O)n(C)c2n1	16%
Cc1ccc(N)cc1Cl	-1%
O=C(c1ccc(F)cc1)C1CCN(CCn2c(=S)[nH]c3ccccc3c2=O)CC1	1%
O=c1[nH]c2cc(Cl)ccc2n1-c1ccccc1	-6%
O=C(Nc1cccc(F)c1)N1CC2(CCN(S(=O)(=O)c3ccccc3)CC2)C1	1%
C[C@H](NC(=O)NCCc1ccccc1)C(=O)O	-11%
Nc1cc(-c2ccco2)no1	-14%
CCOC(=O)N1CCN(C(=O)CSCC(=O)Nc2nc(-c3ccc(Cl)s3)cs2)CC1	94%
CCOC(=O)c1ccc(NC(=O)C2CCCO2)cc1 (centres undefined)	0%
Cn1c(=O)c2c(nc(CN3CCC(C(N)=O)CC3)n2Cc2c(F)cccc2Cl)n(C)c1=O	42%
COC(=O)[C@@]1(Cc2ccc(OC)cc2)[C@H]2c3cc(C(=O)N4CCCC4)n(CCc4c[nH]c5cc(F)ccc45)c3C[C@H]2CN1C(=O)c1ccccc1	100%
COc1ccc(-n2cnnc2SCC(=O)N(C)C2CCS(=O)(=O)C2)cc1 (centres undefined)	19%
CCCCN1C2=NCCCN2c2cc(C)c(C)cc21	-1%
Cc1noc(C)c1COC(=O)c1ccc2c(c1)OCO2	-4%
CCOC(=O)C1CCCN(S(=O)(=O)c2ccc(Br)s2)C1 (centres undefined)	1%
CCOC(=O)c1sc(NC(=O)c2c(C)noc2C)c(C(=O)OCC)c1C	-9%
Cc1cccc(OCCSc2cc(C)nc(N)n2)c1	60%
CCCC(c1nnnn1Cc1ccc(F)cc1)N1CCN(C2CCCCC2)CC1 (centres undefined)	6%
Cc1cc(CN(C)C)c(OC(=O)N(C)C)cc1C	-6%
O=C(CCN1C(=O)c2ccccc2C1=O)Nc1ccc(F)cc1F	-5%
CC1CCCN(S(=O)(=O)c2ccc(NC(=O)CN3CCN(C)CC3)cc2)C1 (centres undefined)	-7%
CCC(=O)Nc1ccc(OC)cc1OC	-4%
O=C(CCNc1cccc(Cl)c1)c1ccco1	-1%
CCOCCn1c(CN2CCN(c3ccc(OC)cc3)CC2)nc2c1c(=O)n(C)c(=O)n2C	100%
Cc1ccc(-n2ncc3c(=O)[nH]c(SCC(=O)N4CCCCC4)nc32)cc1	13%
COc1cc2c(cc1OC)C(c1cc(OC)c(OC)c(OC)c1)NCC2 (centres undefined)	7%
Cn1c(=O)c(CCc2ccccc2)nc2cnc(Oc3ccccc3)nc21	17%
NC(=O)CC[C@@H](N)C(=O)O	6%
CCn1c(-c2ccc(OC)c(OC)c2)n[nH]c1=S	9%
COc1cccc(NC(=O)N(Cc2cc3cc(C)cc(C)c3[nH]c2=O)CC2COCCO2)c1 (centres undefined)	138%
CCC(=O)Nc1c(C)cc(C)cc1Cl	0%
CCN(CC)c1ccc(-c2nn3c(-c4n[nH]c5c4CCC5)nnc3s2)cc1	85%
c1ccc(-n2nnnc2N2CCOCC2)cc1	2%
Cc1cc(C)c2c(n1)nn1c(N3CCN(Cc4ccccc4)CC3)cc(C)nc21	116%
Cc1ccccc1N=C1NC(=O)CS1	-6%
COc1ccccc1CNC(=O)CCNC(=O)Cn1cnc2ccccc2c1=O	5%
CS(=O)(=O)Nc1ccccc1C(=O)Nc1cccc(Cl)c1	-18%
CC(=O)N(c1ccc(Cl)cc1)c1c[nH]c2ccccc12	13%
CCCCCCn1c(CN2CCCC(C)C2)nc2c1c(=O)n(C)c(=O)n2C (centres undefined)	92%
O=C(Nc1nc(-c2nc3ccccc3s2)cs1)C1CC1	-6%
COc1ccc(Nc2nc3ccccc3nc2C)cc1	49%
Cc1nc(NCCN2CCOCC2)c2nnn(Cc3ccccc3Cl)c2n1	75%
CCSc1nnc(NC(=O)c2nc(-c3ccccc3)n(-c3ccccc3)n2)s1	-1%
CCN(CC)C(=O)C1CCC(C)(C(=O)O)C1(C)C (centres undefined)	2%
Cc1nnc(NCc2ccncc2)c2ccccc12	-2%
CC(=O)C1(C)CC2=C(CCCC2(C)C)CC1C (centres undefined)	-4%
Cc1cc(CN2CCOCC2)c(O)c(C2(C)CCCCC2)c1	54%
O=c1c2c([nH]c3ccccc13)CCCCCC2	-3%
COc1cc(OC)c(C2C(C#N)=C(N)OC3=C2C(=O)CC(C)(C)C3)cc1OC (centres undefined)	17%
COc1ccccc1C(=O)NCCc1nc2ccccc2[nH]1	-11%
Cc1cc(NC(=O)COC(=O)c2c(C)nn(Cc3ccccc3Cl)c2Cl)no1	?
COc1ccc(C2C(C(=O)c3cccs3)=C(O)C(=O)N2c2nnc(C)s2)cc1OC (centres undefined)	-19%
CC(C)c1ccccc1N=C1SCCN1C1CCS(=O)(=O)C1 (centres undefined)	29%
Cc1c(C(=O)Nc2cnccn2)oc2ccccc12	-1%
COc1cc(C2CC(=O)Nc3ccccc3S2)cc(OC)c1OC (centres undefined)	16%
O=C(CC(c1ccccc1)c1ccccc1)NCCO	4%

Sorted by SMILES length (lowest first): some entries from above
SMILES	AmpC inh no det
O=c1c2c([nH]c3ccccc13)CCCCCC2	-3%
Cc1c(C(=O)Nc2cnccn2)oc2ccccc12	-1%
CCN(CC)C(=O)C1CCC(C)(C(=O)O)C1(C)C (centres undefined)	2%
Cc1cc(CN2CCOCC2)c(O)c(C2(C)CCCCC2)c1	54%
CC(C)c1ccccc1N=C1SCCN1C1CCS(=O)(=O)C1 (centres undefined)	29%
Cc1nc(NCCN2CCOCC2)c2nnn(Cc3ccccc3Cl)c2n1	75%

Compounds above that contain a tert-butyl group, in the order listed:
SMILES	AmpC inh no det
Cn1c(SCC(=O)NC(C)(C)C)nnc1-c1ccc(C(C)(C)C)cc1	65%
CCC1CCCCN1P(=O)(c1ccc(C)o1)C(C)(C)C (centres undefined)	67%

Next compounds
SMILES	AmpC inh no det
O=C(Nc1ccc(-c2noc(COc3ccccc3Cl)n2)cc1)c1ccco1	-19%
Cn1cccc1C(=O)N1CCC2(CC1)CCN(c1ncccn1)CC2	94%
O=C1CCCC2=C1C(c1cccs1)n1nc(SCc3ccccc3)nc1N2 (centres undefined)	3%
N[C@H](COP(=O)(O)O)C(=O)O	-2%
Cn1nnnc1SCCOc1ccc(C#N)cc1	-9%
CCOCC(=O)Nc1ccc2c(c1)OCCO2	10%
CCCN(CCO)Cc1cccc(Cl)c1	-1%
CCNC(=O)NC(=O)C(C)SCc1ccccc1C (centres undefined)	3%
O=C(N1CCOCC1)C12CCC3CC(CC(C3)C1)C2	17%
COc1cc(NS(=O)(=O)c2ccc(NC(=O)C3CCCO3)cc2)nc(OC)n1 (centres undefined)	-6%
CCc1ccccc1-n1c(-c2ccncc2)n[nH]c1=S	9%

An excerpt of these results, field by field.
CCc1ccccc1-n1c(-c2ccncc2)n[nH]c1=S
  AmpC inh no det = 9%
O=C1CCCC2=C1C(c1cccs1)n1nc(SCc3ccccc3)nc1N2 (centres undefined)
  AmpC inh no det = 3%
COc1cc(NS(=O)(=O)c2ccc(NC(=O)C3CCCO3)cc2)nc(OC)n1 (centres undefined)
  AmpC inh no det = -6%
N[C@H](COP(=O)(O)O)C(=O)O
  AmpC inh no det = -2%
